Vaccinia stage: blocks a specific stage of Vaccinia orthopoxvirus infection, primary screen, cell-based, single point | Vaccinia-infected cells, mCherry/Venus stage reporter fluorescence; active compounds read low; some inactives read as strong as hits | activity change (mCherry), % (concentration not given with the values) | hit rate 0.01% among 89,000 | AID 1053133, 2014;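 active means mCherry past -33% and 40 or more points under the early reporter, replicates agreeing; inconclusive means past -33% without that gap or agreement; tested in A549 cells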;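 further: scaled between vehicle wells and reference inhibitor wells; 23 nL library stock went into each well; one replicate is shown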
Vaccinia stage Venus: second read-out of Vaccinia stage, no call of its own (marks repeat the call); activity change (Venus), %; measured here: Venus reporter, other viral stage;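 negative = less Venus signal; first of two replicates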
Starred values were filed as active, the others as inactive; ? = inconclusive; / = no result given; & = joins results of further samples. A portion of the library (hit frequency here may not be typical).

SMILES	Vaccinia stage	Vaccinia stage Venus
CCNC(=O)C[C@@H]1CC[C@H](NS(=O)(=O)c2ccc(C)cc2)[C@H](CO)O1	4	17
C[C@@H]1CCCCO[C@@H](CN(C)Cc2ccc(C(=O)Nc3ccccc3N)cc2)[C@@H](C)CN([C@H](C)CO)C(=O)c2cc(NC(=O)Cc3ccccc3)ccc2O1	-7	-4
C[C@@H]1CN([C@@H](C)CO)S(=O)(=O)c2ccc(-c3cncnc3)cc2O[C@H]1CN(C)C(=O)Cc1ccccc1	17	11
CCCN1[C@@H]2Cn3c(ccc(-c4cccnc4)c3=O)[C@H]1[C@@H](C(=O)NCCc1cn(C)cn1)[C@@H]2CO	5	-1
COCCNC(=O)[C@@H]1[C@@H](CO)[C@@H]2Cn3c(ccc(C4=CCCCC4)c3=O)[C@H]1N2Cc1cocn1	8	5
CCC(=O)Nc1ccc2c(c1)OC[C@H](C)N(C(=O)c1cccnc1)C[C@@H](C)[C@H](OC)CN(C)C2=O	9	6
CCCNC(=O)N1CC(=O)N2[C@H](C1)[C@H](c1ccc(-c3ccncc3)cc1)[C@@H]2CO	31	17
C[C@@H]1CN([C@H](C)CO)C(=O)c2cc(C#CC3(O)CCCC3)cnc2O[C@H]1CN(C)Cc1cccnc1	16	20
CO[C@H]1CN(C)C(=O)c2ccc(NC(=O)c3ccccc3)cc2OC[C@@H](C)N(C)C[C@@H]1C	-9	-3
CO[C@@H]1CN(C)C(=O)c2ccc(NC(=O)c3ccno3)cc2OC[C@H](C)N(S(C)(=O)=O)C[C@@H]1C	21	16

Complete entries as entered above. Order of screens: Vaccinia stage	Vaccinia stage Venus
CCCN1[C@@H]2Cn3c(ccc(-c4cccnc4)c3=O)[C@H]1[C@@H](C(=O)NCCc1cn(C)cn1)[C@@H]2CO is listed as 5	-1
CO[C@H]1CN(C)C(=O)c2ccc(NC(=O)c3ccccc3)cc2OC[C@@H](C)N(C)C[C@@H]1C is listed as -9	-3
CCNC(=O)C[C@@H]1CC[C@H](NS(=O)(=O)c2ccc(C)cc2)[C@H](CO)O1 is listed as 4	17
COCCNC(=O)[C@@H]1[C@@H](CO)[C@@H]2Cn3c(ccc(C4=CCCCC4)c3=O)[C@H]1N2Cc1cocn1 is listed as 8	5

Next compounds follow:
SMILES	Vaccinia stage	Vaccinia stage Venus
C[C@@H]1CCCCO[C@@H](CN(C)S(=O)(=O)c2ccccc2)[C@H](C)CN([C@H](C)CO)C(=O)c2cc(NS(=O)(=O)c3ccccc3)ccc2O1	?	/
O=S(=O)(N[C@@H]1CC[C@H](CCn2cc(-c3ccccc3F)nn2)O[C@@H]1CO)c1ccc(Cl)cc1	?	/
COc1ccc(C#Cc2ccc3c(c2)[C@H]2[C@H](CCN2C(=O)CC2CC2)[C@H](CO)N3)cc1	25	18
COc1ccccc1C#Cc1ccc2c(c1)O[C@@H](CN(C)Cc1ccccc1)[C@@H](C)CN([C@H](C)CO)S2(=O)=O	-1	7
CCCNC(=O)C[C@H]1CC[C@H]2[C@@H](COC[C@H](O)CN2C(=O)Nc2cccc(Cl)c2)O1	-12	-7
N#Cc1ccc(-c2ccc3c(c2)[C@H]2[C@H](CCN2C(=O)C2CCCCC2)[C@@H](CO)N3)cc1	?	/
C[C@H]1CCCCO[C@@H](CN(C)C(=O)CCC(F)(F)F)[C@@H](C)CN([C@@H](C)CO)C(=O)c2cc(NS(=O)(=O)c3ccc(F)cc3)ccc2O1	-34	-32
COC(=O)C(CC#Cc1ccc2c(c1)[C@]1(C(=O)N2)[C@H](c2ccccc2OCCO)N2[C@H](c3ccccc3)[C@H](c3ccccc3)OC(=O)[C@H]2[C@@H]1C(=O)N1CCN(c2ncccn2)CC1)C(=O)OC	-3	-2
C[C@@H]1CCCCO[C@H](CN(C)S(=O)(=O)c2cccs2)[C@@H](C)CN([C@@H](C)CO)C(=O)c2cc(NC(=O)Nc3ccc(F)cc3)ccc2O1	-3	1
Cc1ccc(S(=O)(=O)Nc2ccc3c(c2)C(=O)N([C@@H](C)CO)C[C@H](C)[C@@H](CN(C)C(=O)C2CCCCC2)OCCCC[C@H](C)O3)cc1	?	/
COc1ccc2c3c([nH]c2c1)[C@H](CO)N(Cc1ccccc1)CC31CN(C(C)=O)C1	15	12
C[C@H]1CN([C@@H](C)CO)S(=O)(=O)c2ccc(Br)cc2O[C@H]1CN(C)Cc1cccnc1	12	-6
C[C@H]1CN([C@@H](C)CO)C(=O)c2cccc(NC(=O)c3ccncc3)c2O[C@@H]1CN(C)S(=O)(=O)c1ccc(F)cc1	11	7
C[C@@H]1CCCCO[C@@H](CN(C)S(=O)(=O)c2ccccc2)[C@@H](C)CN([C@H](C)CO)C(=O)c2cc(NC(=O)c3ccccc3)ccc2O1	8	-3
C/C=C/c1ccc([C@@H]2[C@H](CO)N(C(=O)CN(C)C)C23CN(C(=O)C2CCCCC2)C3)cc1	-23	-11
O=C(c1cnccn1)N1CC(=O)N2[C@H](CO)[C@H](c3ccc(-c4ccccc4)cc3)[C@@H]2C1	6	-4
O=C(Cc1ccccn1)NCC[C@H]1CC[C@H](NC(=O)CN2CCOCC2)[C@@H](CO)O1	-3	-3
C[C@@H]1CN([C@H](C)CO)C(=O)c2cccc(NC(=O)NC3CCCCC3)c2O[C@@H]1CN(C)C(=O)NC1CCCCC1	-6	-6
C[C@@H]1CN([C@@H](C)CO)C(=O)c2cccc(NS(=O)(=O)c3ccc(F)cc3)c2O[C@H]1CN(C)S(=O)(=O)c1ccccc1	26	15
CCC(=O)N[C@@H]1C[C@@H]2O[C@@H](CO)CC[C@@H]2O[C@@H]1CCc1ccc(-c2cccc(OC)c2)cc1	-22	-7
C[C@@H]1CCCCO[C@H](CN(C)S(=O)(=O)c2ccc(Cl)cc2)[C@H](C)CN([C@H](C)CO)C(=O)c2cc(NS(C)(=O)=O)ccc2O1	-25	-13
C[C@H]1CN([C@@H](C)CO)C(=O)c2cc(-c3ccc(C#N)cc3)cnc2O[C@H]1CN(C)C(=O)c1ccccc1	7	6
C[C@@H]1CN([C@@H](C)CO)C(=O)c2cc(C3=CCCC3)cnc2O[C@@H]1CN(C)Cc1ccc(C(=O)O)cc1	24	26
CC(=O)N(C)C[C@H]1Oc2cc(C#CCC3CCCC3)ccc2S(=O)(=O)N([C@@H](C)CO)C[C@@H]1C	?	/
COc1ccc(NC(=O)Nc2ccc3c(c2)[C@@H]2C[C@H](CC(=O)N[C@@H](C)c4ccccc4)O[C@@H](CO)[C@@H]2O3)cc1	11	5
C[C@@H]1CN([C@@H](C)CO)C(=O)Cc2cc(NC(=O)CCCCCC(=O)Nc3ccccc3N)ccc2O[C@H]1CN(C)C(=O)NC1CCCCC1	10	19
C#CCN1[C@H](/C=C/C2CC2)[C@H](Cc2ccccc2)OC(=O)[C@@H]1[C@@H]1N[C@@H](C(=O)OC)C(C)(C)S1	-4	-3
O=C(C[C@H]1CC[C@H](NC(=O)c2cccnc2)[C@H](CO)O1)NCCN1CCCCC1	-1	0
C[C@@H]1CN([C@@H](C)CO)C(=O)c2cc(NC(=O)CCCN(C)C)ccc2O[C@@H]1CN(C)Cc1ccc(Oc2ccccc2)cc1	?	/
O=C(C[C@H]1CC[C@@H]2[C@H](COC[C@@H](O)CN2Cc2cc(F)ccc2F)O1)N[C@@H]1CCN(Cc2ccccc2)C1	-16	-10
C[C@@H]1CN([C@@H](C)CO)C(=O)c2cccc(NC(=O)c3ccc(-c4nccs4)cc3)c2O[C@H]1CN(C)S(=O)(=O)c1cn(C)cn1	-13	-14
C/C=C/c1cnc2c(c1)C(=O)N([C@H](C)CO)C[C@@H](C)[C@H](CN(C)C(=O)NC1CCCC1)O2	6	4
CC(C)NC(=O)N(C)C[C@H]1Oc2cc(-c3cncnc3)ccc2S(=O)(=O)N([C@H](C)CO)C[C@@H]1C	21	10
COCC(=O)N1[C@H](CO)[C@H](c2ccc(-c3ccccc3)cc2)C12CN(C(C)=O)C2	6	12
COc1cccc(NC(=O)N[C@H]2C=C[C@@H](CC(=O)N3CCCCC3)O[C@H]2CO)c1	0	-2
CC(C)N1C(=O)[C@@]2(Cc3ccccc31)c1ccccc1C(=O)N(Cc1ccccc1)[C@H]2c1ccc(CO)cc1	0	-1
COc1cccc(C#Cc2ccc3c(c2)[C@@H]2[C@@H](CCN2S(=O)(=O)c2ccccc2)[C@H](CO)N3)c1	-14	-6
CCCN1[C@H](C(=O)NC2Cc3ccccc3C2)[C@@H](CO)[C@@H]2Cn3c(ccc(C4=CCCCC4)c3=O)[C@@H]21	-10	6
CC(=O)N1CC2(C1)[C@H](c1ccc(-c3cccc(F)c3)cc1)[C@@H](CO)N2CC1CC1	12	16
COCC(=O)N1C[C@H]2[C@@H](c3ccccc31)[C@@H](CO)N2C(=O)c1ccncc1	16	12
CN(C)CC(=O)Nc1ccc2c(c1)[C@H]1C[C@H](CC(=O)NC3CCCC3)O[C@H](CO)[C@H]1O2	14	16
CO[C@@H]1CN(C)C(=O)c2cc(NC(=O)Nc3c(C)noc3C)ccc2OC[C@H](C)N(C)C[C@H]1C	4	-3
C[C@@H]1CN([C@H](C)CO)C(=O)c2cc(NC(=O)Nc3cccc4ccccc34)ccc2O[C@@H]1CN(C)Cc1ccc(Oc2ccccc2)cc1	-11	-9
CC=Cc1ccc2n(c1=O)C[C@H]1[C@H](CO)[C@@H](C(=O)NCC3CCCCC3)[C@@H]2N1C(=O)CC (mixture of isomers)	10	16
CO[C@H]1CN(C)C(=O)c2ccc(NC(=O)Nc3ccccc3F)cc2OC[C@@H](C)N(Cc2ccccc2C(=O)O)C[C@@H]1C	-5	-5
C[C@@H]1CN([C@@H](C)CO)C(=O)c2cc(N(C)C)ccc2O[C@H]1CN(C)Cc1ccc2c(c1)OCO2	-6	-10
C[C@H]1CN([C@@H](C)CO)C(=O)c2ccccc2-c2ccccc2CO[C@@H]1CN(C)Cc1cccnc1	20	12
COc1ccc(NC(=O)N(C)C[C@@H]2Oc3ccc(NC(=O)c4ccncc4)cc3CC(=O)N([C@H](C)CO)C[C@@H]2C)cc1	-11	-5
CCCN(C)C[C@@H]1OCCCC[C@H](C)Oc2ccc(NC(=O)Cc3ccccc3)cc2C(=O)N([C@H](C)CO)C[C@@H]1C	?	/
N#C[C@@H]1[C@H](c2ccc(C#CC3CCCC3)cc2)[C@H](CO)N1S(=O)(=O)c1ccccc1	?	/

Brought forward from above: three entries, then new ones.
SMILES	Vaccinia stage	Vaccinia stage Venus
COc1ccc(NC(=O)N(C)C[C@@H]2Oc3ccc(NC(=O)c4ccncc4)cc3CC(=O)N([C@H](C)CO)C[C@@H]2C)cc1	-11	-5
CCCN(C)C[C@@H]1OCCCC[C@H](C)Oc2ccc(NC(=O)Cc3ccccc3)cc2C(=O)N([C@H](C)CO)C[C@@H]1C	?	/
N#C[C@@H]1[C@H](c2ccc(C#CC3CCCC3)cc2)[C@H](CO)N1S(=O)(=O)c1ccccc1	?	/
O=C(Nc1ccc(C(F)(F)F)cc1)N[C@@H]1C=C[C@@H](CC(=O)N2CCCCC2)O[C@H]1CO	11	12
CO[C@@H](CN(C)C(=O)c1cc(Cl)cc(Cl)c1)[C@H](C)CN(C(=O)Nc1ccc(F)cc1)[C@@H](C)CO	1	0
Cc1ccc(S(=O)(=O)Nc2ccc3c(c2)CC(=O)N([C@@H](C)CO)C[C@@H](C)[C@H](CN(C)S(C)(=O)=O)O3)cc1	3	13
CC(=O)N(C)C[C@@H]1Oc2ncc(C#C[C@H](C)O)cc2C(=O)N([C@@H](C)CO)C[C@@H]1C	13	2
C[C@@H]1CN([C@H](C)CO)C(=O)c2cc(-c3ccncc3)cnc2O[C@@H]1CN(C)C(=O)NC1CCCC1	-3	1
CO[C@H]1CN(C)C(=O)c2ccc(NC(=O)Nc3ccccc3)cc2OC[C@@H](C)N(C(=O)CC2CC2)C[C@H]1C	-9	1
CCCC(=O)Nc1ccc2c(c1)C(=O)N(C)[C@H]1CC[C@@H](CC(=O)Nc3cn(C)nc3C)O[C@H]1CO2	-3	4
O=C(C[C@@H]1CC[C@@H](NC(=O)Nc2ccc(C(F)(F)F)cc2)[C@@H](CO)O1)NCCN1CCCC1	11	8
CNC(=O)C[C@@H]1CC[C@H]2[C@@H](COc3ccc(NC(=O)c4cccc(F)c4)cc3C(=O)N2C)O1	0&-6	-3&-4
Cc1ccc(S(=O)(=O)Nc2ccc3c(c2)C(=O)N([C@@H](C)CO)C[C@@H](C)[C@@H](CN(C)C(=O)CCCN(C)C)OCCCC[C@@H](C)O3)cc1	15	2
COCC(=O)N1CC(=O)N2[C@H](CO)[C@H](c3ccc(C4=CCCC4)cc3)[C@@H]2C1	17	4
CCCNC(=O)N1[C@H](C#N)[C@@H](c2ccc(-c3cccnc3)cc2)[C@H]1CO	17	9
COc1ccc2c3c([nH]c2c1)[C@H](CO)N(C(=O)C1CCC1)CC31CN(C)C1	19	11
CCCNC(=O)N(C)C[C@@H]1Oc2ncc(C#CC3CC3)cc2C(=O)N([C@H](C)CO)C[C@H]1C	20	11
O=C(NCC[C@H]1CC[C@@H](NC(=O)C2CCCCC2)[C@H](CO)O1)Nc1ccc(Cl)cc1	-11	-14
C[C@H](CO)N1C[C@H](C)[C@@H](CN(C)Cc2ccc(C(=O)O)cc2)Oc2ccc(NC(=O)CCN3CCOCC3)cc2C1=O	3	3

High-throughput results as filed in PubChem.
